Bioassay records deposited in PubChem BioAssay by several laboratories.
HIV Env fusion = inhibitors of HIV-1 Env-driven cell-cell fusion, primary screen, HeLa-JRFL effector, CEM21 target cells, luciferase; 360,000 tested, 1.1% active; inhibition, % at 12.3 µM;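 active = mean replicate inhibition score of at least 50 and every replicate individually at or above 50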;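 note: 0% = plate neutral controls and 100% = maraviroc near 300 nM; one replicate is shown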
PABP polyA inh = PABP poly(A) RNA binding inhibitors, primary screen, biochemical, fluorescence polarization, uHTS; Polyadenylate-binding protein 1 (Homo sapiens), P11940; inhibition, % at 35 µM; 290,000 tested, 1% active;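 active = 50% or more with normal probe brightness, or confirmed in later tests; about a fifth of its hits are not listed in these tables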;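 note: calls also rest on retests at 20 µM and on dose response follow-up; controls were probe without protein and protein plus probe with vehicle; some compounds called inactive have numbers as strong as hits; many hits fall short of the cut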
Yeast UUG start = modulators of yeast start codon fidelity, primary screen, whole organism, S. cerevisiae, single point, plate reader | S. cerevisiae UUG-firefly luciferase reporter, luminescence/redox ratio | activity score, % at 18.7 µM | 350,000 tested, 0.13% active;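 active = replicate mean at a twofold rise or more, about +100% in these data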;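 note: firefly luciferase made from a UUG start codon reports start codon fidelity; reporter light over untreated wells divided by growth signal over untreated wells; some hits fall short of that in this replicate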
MT1-MMP act inh = blockers of MT1-MMP proenzyme processing, primary screen, HT1080 RFP-PRO-GFP cells, GFP/RFP fluorescence | GFP/RFP ratio fluorescence, overnight; percent of plate control window, DMSO zero | GFP/RFP ratio change, % at 20 µM | 360,000 tested, 0.061% active;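 active = GFP/RFP ratio change of at least 30% with cell ATP level not reduced by more than half and red fluorescence within 50% of control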; note: strong numbers were not always called active
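Assay system: HT1080 RFP-PRO-GFP cells. Benchmarks: DMSO vehicle wells and RFP-L50D-GFP reporter cell wells. Times: overnight cell settling, then overnight compound exposure, 37 °C, 5% CO2. Compound: 20 µM single dose, 1% DMSO. Read-out basis: GFP/RFP fluorescence ratio.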
eIF4H inh = human eIF4H binding inhibitors, primary screen, translation initiation inhibitor project, biochemical, uHTS, fluorescence polarization. Eukaryotic translation initiation factor 4H (Homo sapiens), Q15056. eIF4H fluorescence polarization binding assay. inhibition, % at 35 µM. 290,000 tested, 0.94% active. AID 2012, 2009;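 active = 50% or more with normal probe brightness, or confirmed in later tests; about a fifth of its hits are not listed in these tables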;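 note: calls also rest on retests at 20 µM and on dose response follow-up; 0% = protein and probe with vehicle and 100% = probe without protein; strong numbers were not always called active; many hits fall short of the cut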
Rce1 inhib = yeast Rce1p protease inhibitors, primary screen, biochemical, fluorescence, cell-free homogeneous | 290,000 tested, 0.27% active | calls only | CAAX prenyl protease 2 (Saccharomyces cerevisiae (strain ATCC 204508 / S288c)), Q03530 | yeast membranes, quenched prenylated peptide cleavage fluorescence;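 active = fall in fluorescence gain of 50% or more versus controls, with final raw signal at or below 3038400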;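 note: plate controls were neutral control wells for no effect and wells lacking membranes for full effect; tested at 10 µM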
Target sequence (Q03530 whole entry, looked up): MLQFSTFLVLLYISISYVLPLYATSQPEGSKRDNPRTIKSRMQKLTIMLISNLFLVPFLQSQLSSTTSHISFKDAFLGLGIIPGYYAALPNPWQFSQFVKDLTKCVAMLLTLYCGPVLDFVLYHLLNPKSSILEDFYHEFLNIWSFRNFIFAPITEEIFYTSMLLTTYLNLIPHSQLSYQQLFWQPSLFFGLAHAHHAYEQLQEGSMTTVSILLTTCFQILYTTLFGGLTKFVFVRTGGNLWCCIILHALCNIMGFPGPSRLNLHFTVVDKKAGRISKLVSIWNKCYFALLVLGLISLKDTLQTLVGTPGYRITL
CSC inhib = cancer stem cell viability inhibitors, primary screen, luminescence. cancer stem cell-like cells viability. inhibition, % at 7.5 µM. 300,000 tested, 1.1% active;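 active = mean at 75% or more and at least half the replicates too; tested in HMLE shEcad cells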;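 note: 0% = median of negative and 100% = median of positive control wells; the first replicate is given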
MT1-MMP act inh RFP = also measured in MT1-MMP act inh; calls as there; RFP signal change, %; measured here: RFP expression control read;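 0 = vehicle wells; hits needed this value within 50% of zero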
Active calls of the source: *; i = inactive; . = no result given; + = active, no number. This is a subset; rates above refer to the full screens.

Every second line gives: HIV Env fusion, PABP polyA inh, Yeast UUG start, MT1-MMP act inh, MT1-MMP act inh RFP, eIF4H inh, Rce1 inhib, CSC inhib
> COc1ccc(C2C(C(=O)OCC(=O)Nc3ccc(C)cc3)CCC(=O)N2c2ccc(OC)cc2)cc1 (centres undefined)
    ., -8.5, 1.9, -0.4, 3.4, -2.2, i, -10.5
> O=C(CSc1ncn[nH]1)N1CCN(c2nnc(-c3ccccc3)c3ccccc23)CC1
    33.1, 1.1, ., 4.0, -0.4, -10.0, i, -13.1
> COc1ccc(-c2cc(C(=O)N3CCCCCC3)c3ccccc3n2)cc1OC
    -3.0, ., 0.2, 2.9, 1.1, ., ., .
> O=C(CN1CCCC1)Nc1ccc(NC(=O)Nc2ccccc2)cc1
    ., -1.0, -8.7, 2.0, 1.9, 1.5, i, .
> Cc1nc2ccccc2nc1CSc1nncs1
    -7.8, -0.4, -6.8, -0.6, -1.4, 4.6, i, -0.3
> CC(=O)Oc1ccc(-c2csc(Nc3ccc(S(N)(=O)=O)cc3)n2)cc1
    17.4, -1.0, ., -3.4, -3.6, -4.4, i, -4.4
> COc1ccc(OC)c(C2CC(c3ccccc3)=NN2C(=S)Nc2ccccc2)c1 (centres undefined)
    -9.2, -0.4, ., 5.0, -0.7, 0.2, i, 54.5
> CCC1Nc2ncnc(N3CCCCC3)c2N(Cc2ccccc2)C1=O (centres undefined)
    -25.3, ., -2.8, -0.4, -2.7, ., i, 6.0
> COc1ccccc1-c1nc(SCC(=O)N2CCOCC2)n[nH]1
    3.8, 6.2, 0.8, -0.8, 0.5, 2.3, i, -16.1
> COC(=O)c1ccc(NC(=O)CCN2CCOCC2)cc1
    11.8, -6.9, -4.2, -1.2, 2.6, -4.7, i, 3.7
> Cc1ccc(CN(c2ccc(C(=O)NCC3CCCO3)cc2)S(C)(=O)=O)cc1 (centres undefined)
    -5.4, 4.5, -12.7, -1.9, -0.5, -2.9, i, -12.3
> CC(=O)c1cccc(NC(=O)CN(C)S(=O)(=O)c2ccc3c(c2)CC(C)N3C(C)=O)c1 (centres undefined)
    -5.4, -4.6, 7.2, 0.8, -5.7, -0.5, i, -10.7
> CSc1ccccc1NC(=O)Nc1cccc(F)c1
    -15.5, -6.3, ., 0.0, -4.7, -1.5, i, 8.6
> O=C(c1cccc(NS(=O)(=O)c2ccc(F)c(F)c2)c1)N1CCN(Cc2ccccc2)CC1
    13.9, 6.2, -5.4, 2.5, 0.6, -7.3, i, -5.8
> Cc1cc(NC(=O)c2ccc(Cl)cc2Cl)n(CCC#N)n1
    -2.9, -10.5, ., 4.9, 4.5, -4.9, i, 5.8
> FC(F)Sc1ccc(-n2cc(-c3ccccc3)[n+]3c2CCC3)cc1
    23.2, -2.2, ., -6.0, -22.9, -0.4, i, .
> COc1ccc(-n2nc(C(=O)NCC(=O)N3CCN(c4ccccc4)CC3)c3ccccc3c2=O)c(OC)c1
    -69.8, 7.8, -3.3, -0.1, -0.4, 4.5, ., -23.8
> Cc1ccc(C)c2[nH]c(=O)c(CN(CCN3CCOCC3)Cc3nnnn3CC3CCCO3)cc12 (centres undefined)
    -37.4, 2.5, 1.9, -0.8, 3.6, 1.6, i, -11.6
> Cc1cccc(OCC(O)Cn2ccnc2C)c1 (centres undefined)
    -13.1, 3.6, 4.6, -0.5, 0.2, -9.4, i, -11.4
> CCOc1ccc(N(CC(=O)NC2CC3CCC2C3)S(=O)(=O)c2ccccc2)cc1 (centres undefined)
    13.8, -4.7, 20.3, -2.0, -4.0, 8.7, +, .

Complete entries, looked up by structure:
COC(=O)c1ccc(NC(=O)CCN2CCOCC2)cc1 is entered as HIV Env fusion: 11.8; PABP polyA inh: -6.9; Yeast UUG start: -4.2; MT1-MMP act inh: -1.2; MT1-MMP act inh RFP: 2.6; eIF4H inh: -4.7; Rce1 inhib: i; CSC inhib: 3.7
CC(=O)c1cccc(NC(=O)CN(C)S(=O)(=O)c2ccc3c(c2)CC(C)N3C(C)=O)c1 (centres undefined) is entered as HIV Env fusion: -5.4; PABP polyA inh: -4.6; Yeast UUG start: 7.2; MT1-MMP act inh: 0.8; MT1-MMP act inh RFP: -5.7; eIF4H inh: -0.5; Rce1 inhib: i; CSC inhib: -10.7
O=C(CN1CCCC1)Nc1ccc(NC(=O)Nc2ccccc2)cc1 is entered as HIV Env fusion: .; PABP polyA inh: -1.0; Yeast UUG start: -8.7; MT1-MMP act inh: 2.0; MT1-MMP act inh RFP: 1.9; eIF4H inh: 1.5; Rce1 inhib: i; CSC inhib: .

(next part)
Every second line gives: HIV Env fusion, PABP polyA inh, Yeast UUG start, MT1-MMP act inh, MT1-MMP act inh RFP, eIF4H inh, Rce1 inhib, CSC inhib
> O=c1oc2ccccc2c(Nc2ccccc2O)c1[N+](=O)[O-]
    13.3, 6.2, ., -3.6, -12.1, 24.2, i, 8.7
> CC(C)CN1CCC(=O)N(CCO)CC1
    -11.8, 6.7, -8.1, 1.1, 5.5, -8.8, i, 2.7
> Nn1cnc2scc(-c3ccc(Cl)cc3)c2c1=O
    -12.7, -3.9, -15.8, -1.4, 1.4, 0.9, i, -13.4
> O=C(O)CCCNC(=O)c1nn(Cc2ccccc2)c(=O)c2ccccc12
    4.4, 6.4, -7.8, 4.6, 7.4, -10.4, ., 5.9
> CCOC(=O)c1sc(N/N=C/c2cc(Br)c(O)c(OC)c2)nc1C
    7.0, 6.5, -7.0, -2.5, -12.6, 3.6, i, 22.8
> COc1c(S(=O)(=O)NCCCN2CCOCC2)ccc(Cl)c1Cl
    -10.9, 3.2, -9.2, 1.6, 4.1, -0.6, i, 48.5
> O=C(CCC(=O)N1CCOc2ccccc21)NCCc1ccccc1
    -11.7, 2.5, -11.3, -2.5, 0.6, 1.0, i, -14.6
> Cc1nc(SCC(=O)Nc2c(C)nn(C)c2C)c2cnn(-c3ccccc3)c2n1
    63.8*, -1.3, -5.3, -1.3, -19.0, -3.4, i, 3.5
> CCCCN(C=O)c1c(CC)nc2ccc(C(=O)NCCc3ccccn3)cn12
    -42.6, ., -2.3, -2.9, 0.5, ., ., .
> CCC(C)OC(=O)C1=C(C)OC23OC(N)=C(C#N)C12C(=O)c1ccccc13 (centres undefined)
    ., -2.4, ., -0.6, -7.0, -3.1, i, -8.7
> Cn1c(N)c(C(=O)COC(=O)Cc2cccs2)c(=O)n(C)c1=O
    -8.7, ., 4.5, 4.9, 3.2, ., ., -16.2
> CC1=C(C(=O)N(C(C)C)C(C)C)CC(CC(=O)NCCN2CCOCC2)C(=O)N1Cc1ccc(F)cc1 (centres undefined)
    9.9, ., -12.0, -0.4, 5.4, ., ., .
> CC(NS(=O)(=O)c1ccc(F)cc1)C(=O)Nc1ccc2c(c1)OCCO2 (centres undefined)
    -1.2, 7.7, -16.9, 0.0, 1.5, -6.4, i, -5.2
> COc1ccc(NC(=O)Nc2cccc(NC(C)=O)c2)c(OC)c1
    -14.5, -15.9, ., 2.1, 3.5, -2.3, ., -2.9
> COc1ccc(-c2nnc(SCC(=O)Nc3nc4ccccc4s3)n2C)cc1
    -8.8, -3.6, -9.0, 2.2, -1.4, 11.6, i, .
> CC(OC(=O)COc1ccccc1)C(=O)NC1CCCC1 (centres undefined)
    ., ., -11.8, -1.0, 1.0, ., ., -12.2
> COc1ccc(-n2c(SCC(=O)N3CCOCC3)nc(O)cc2=O)cc1
    20.9, -6.4, -0.8, -4.4, 0.6, -5.9, i, -13.6
> COc1ccc(C(=O)NCCN2CCN(C(=O)c3ccc(OC)cc3)CC2)cc1
    -234.5, -6.5, 12.7, 1.2, 2.7, 3.8, i, 5.4
> CCOC(=O)N1CCN(C(=O)CNC(=O)c2ccc(Br)o2)CC1
    -32.1, -5.2, -15.2, 4.1, 2.2, 6.5, i, -0.6
> OCCCCC#Cc1c(-c2ccsc2)sc2ccccc12
    2.4, -4.4, -8.5, -2.5, 0.3, -1.8, i, 98.7*

Two entries from above, field by field:
> Nn1cnc2scc(-c3ccc(Cl)cc3)c2c1=O
  HIV Env fusion = -12.7 | PABP polyA inh = -3.9 | Yeast UUG start = -15.8 | MT1-MMP act inh = -1.4 | MT1-MMP act inh RFP = 1.4 | eIF4H inh = 0.9 | Rce1 inhib = i | CSC inhib = -13.4
> O=C(O)CCCNC(=O)c1nn(Cc2ccccc2)c(=O)c2ccccc12
  HIV Env fusion = 4.4 | PABP polyA inh = 6.4 | Yeast UUG start = -7.8 | MT1-MMP act inh = 4.6 | MT1-MMP act inh RFP = 7.4 | eIF4H inh = -10.4 | Rce1 inhib = . | CSC inhib = 5.9

(cont.)
Every second line gives: HIV Env fusion, PABP polyA inh, Yeast UUG start, MT1-MMP act inh, MT1-MMP act inh RFP, eIF4H inh, Rce1 inhib, CSC inhib
> CCCCCCn1cc(C(=O)O)c(=O)c2ccccc21
    ., 1.0, -3.6, -1.6, 4.4, 3.0, i, -4.5
> COc1ccc(C(=O)C2CCCN(Cc3cccn3-c3ccccn3)C2)cc1F (centres undefined)
    -4.6, -1.1, 0.6, 0.5, 0.5, 0.4, i, .
> O=C(C1CC1)N1N=C2CCCCC2C1(O)C(F)(F)F (centres undefined)
    3.4, 4.9, -5.3, -2.1, 1.9, -4.4, i, -12.8
> COc1ccc(CN2CC(=O)N(c3ccc(C)c(C)c3)C2=S)cc1OC
    4.8, 14.3, ., 3.1, -6.0, 10.5, i, 14.7
> COc1ccc(NC(=O)CC2C(=O)N(Cc3cccs3)C(=S)N2C(C)C)cc1 (centres undefined)
    39.8, 0.1, -15.2, 2.4, -0.3, 0.7, i, 7.1
> CCc1ccc2c(c1)cc(CN(C(=S)Nc1cccc(C)c1)C1CC1)c1nnnn12
    ., 1.6, -7.4, 0.0, 0.0, -7.3, i, 10.3
> COc1ccc(NS(=O)(=O)c2ccc3c(c2)NC(=O)CCS3)cc1Cl
    11.7, -5.5, -12.3, -6.6, -2.0, -9.1, i, 15.5
> CCN1CCN(c2ccc(NC(=O)Cc3ccccc3)cc2)CC1
    ., -11.6, -4.6, 1.7, 3.8, -2.6, i, .
> O=C(Nc1cc(S(=O)(=O)N2CCCC2)ccc1OCC(F)(F)F)c1ccccc1F
    7.8, 6.6, ., 4.8, 1.1, 5.7, i, .
> CN1CCN(C(=O)Cn2c(=O)oc3cc(S(=O)(=O)NCc4ccccc4)ccc32)CC1
    4.6, 11.4, -0.2, 1.4, 3.1, 5.0, ., 26.2
> O=C(COC(=O)c1sc2cc(F)ccc2c1Cl)Nc1ncc(Cl)cc1Cl
    ., -11.5, ., -4.8, -0.6, -5.3, i, -8.4
> COc1ccccc1NC(=O)c1ccc(N2CC3CC(C2)c2cccc(=O)n2C3)c(NC(=O)c2ccncc2)c1 (centres undefined)
    7.3, -4.2, -10.8, -4.2, 1.7, -5.0, i, -2.1
> COCc1cc(OC)nc(-c2csc(C)n2)n1
    5.9, -4.9, -20.8, 1.3, 4.0, -7.1, i, -1.1

Looked up by compound from the entries so far:
Every second line gives: HIV Env fusion, PABP polyA inh, Yeast UUG start, MT1-MMP act inh, MT1-MMP act inh RFP, eIF4H inh, Rce1 inhib, CSC inhib
> COc1c(S(=O)(=O)NCCCN2CCOCC2)ccc(Cl)c1Cl
    -10.9, 3.2, -9.2, 1.6, 4.1, -0.6, i, 48.5
> Cn1c(N)c(C(=O)COC(=O)Cc2cccs2)c(=O)n(C)c1=O
    -8.7, ., 4.5, 4.9, 3.2, ., ., -16.2
